D2 PAM: potentiates the human D2 dopamine receptor allosterically. actives 0.23% (n = 360,000). DiscoveRx D2 beta-arrestin cells, luminescence, 90 min; 100% = 57 uM dopamine signal. P14416. potentiation, % (test concentration not listed); active = potentiation of 50% or more; inconclusive = 30% to 50%; inactive = 30% or less;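 also: compound concentration not given in the record; tested on top of an EC20 dose of dopamine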
Target sequence (P14416 whole entry, looked up): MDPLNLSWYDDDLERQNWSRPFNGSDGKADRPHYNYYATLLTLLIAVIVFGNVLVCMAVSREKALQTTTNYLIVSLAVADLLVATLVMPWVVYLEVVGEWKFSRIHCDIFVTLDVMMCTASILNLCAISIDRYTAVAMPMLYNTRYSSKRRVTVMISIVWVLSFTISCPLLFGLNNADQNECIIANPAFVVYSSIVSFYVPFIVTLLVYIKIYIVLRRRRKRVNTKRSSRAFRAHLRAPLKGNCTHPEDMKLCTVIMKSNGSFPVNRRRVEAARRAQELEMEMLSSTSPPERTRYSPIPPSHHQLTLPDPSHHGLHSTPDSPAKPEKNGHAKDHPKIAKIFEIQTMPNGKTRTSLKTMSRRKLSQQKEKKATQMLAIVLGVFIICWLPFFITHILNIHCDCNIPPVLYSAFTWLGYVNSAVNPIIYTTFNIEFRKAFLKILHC
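PathHunter beta-arrestin assay in DiscoveRx D2 cells. Compounds were added with an EC20 of dopamine (50 nM final) for 90 min at 37 deg C. Luminescence was read 1 h after detection reagent, with 57 uM dopamine as the EC100 control.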
TRPML1 agonist: activates the human TRPML1 channel; Q9GZU1; TRPML1-expressing cells, Ca2+ dye fluorescence, FDSS; host cell line not named in the record; reference of the full effect not given here; activation, % (concentration not given with the values); actives 0.12% (n = 410,000); in the data active = activation above about 50%; inconclusive = about 30% to 50%; inactive = below about 30%; also: 0% is about no effect; the text of the record puts the active cut at 80%
Target sequence (Q9GZU1 whole entry, looked up): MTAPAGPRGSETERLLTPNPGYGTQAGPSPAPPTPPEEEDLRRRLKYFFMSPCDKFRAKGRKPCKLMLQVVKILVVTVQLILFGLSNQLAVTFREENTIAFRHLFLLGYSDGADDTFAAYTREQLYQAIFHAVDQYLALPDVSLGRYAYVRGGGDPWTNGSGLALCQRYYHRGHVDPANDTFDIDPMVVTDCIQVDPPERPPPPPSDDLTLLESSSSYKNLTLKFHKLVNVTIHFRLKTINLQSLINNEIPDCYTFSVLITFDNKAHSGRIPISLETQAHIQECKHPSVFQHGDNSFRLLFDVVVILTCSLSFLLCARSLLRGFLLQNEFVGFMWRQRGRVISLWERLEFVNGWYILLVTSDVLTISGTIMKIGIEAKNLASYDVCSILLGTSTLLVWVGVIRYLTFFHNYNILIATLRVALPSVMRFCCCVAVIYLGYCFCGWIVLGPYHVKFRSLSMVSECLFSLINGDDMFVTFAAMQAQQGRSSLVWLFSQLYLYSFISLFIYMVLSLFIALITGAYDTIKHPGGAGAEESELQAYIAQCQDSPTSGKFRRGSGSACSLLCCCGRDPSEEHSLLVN
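Calcium fluorescence on an FDSS kinetic reader gave the read-out. Tet-induced TRPML1-DL cells were plated overnight, dye-loaded (Ca8 with quencher, 45-90 min, room temperature, dark), then read 110 s after compound addition, and again 110 s after 4uM final 54-4 (EC80).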
Six1-Eya2 blk: Six1/Eya2 interaction inhibition; Q15475+O00167; AlphaScreen GST-Six1/His-Eya2 binding, biochemical; active compounds read low; control for the full effect not named in the record; activity change, % (test concentration not listed); actives 0.56% (n = 360,000); AID 651725; in the data active = activity change below about -65%; inconclusive = about -30% to -65%; inactive = above about -30%; also: % is scaled to controls: 0 for no effect and ±100 for the full control effect
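GST-Six1 + His-Eya2 (5X stock: 250/500 nM); Tris pH 8.0, 300 mM NaCl, 0.05% BSA, 0.02% Tween 20; GSH donor/Ni acceptor beads; 1 h 37 °C dark; AlphaScreen readout.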
PINK1 modulator: changes PINK1 expression; PINK1 immunofluorescence, high-content cytometry, 24 h; Potency, µM (doses to about 76.6 µM), for the others: at the highest dose activation (PINK1 increase), actives largely listed as activators; actives 0.2% (n = 410,000); active = well fitted activation curve with a large enough effect; inconclusive = small, poorly fitted or top-dose-only effect; inactive = flat fitted curve, though single readings scatter; cell line not stated here;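 also: potency is read from the fitted curve at half-maximal effect; % of control where 0% means no effect; nearly all actives have a fitted effect of over 65% in size; a mitochondrial uncoupler was the plate control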
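Readout is PINK1 immunofluorescence, quantified alongside mitochondrial, cell and nuclear markers by laser-scanning microplate cytometry. Cells from a stable line were exposed to compound titrations (5 concentrations) for 24 hours, with CCCP controls.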
D2 ag: activates the human D2 dopamine receptor; activation, % (test concentration not listed); DiscoveRx PathHunter D2 beta-arrestin, luminescence, 90 min; 100% = 57 uM dopamine signal; actives 0.084% (n = 360,000); P14416; in the data active = activation above about 40%; inconclusive = about 15% to 40%; inactive = below about 15%; also: compound concentration not given in the record; the text of the record calls up to 30% inactive
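Agonist mode: compounds alone added to overnight-plated D2 PathHunter cells for 90 min at 37 C, with 57 uM final dopamine (EC100) defining full response. Beta-arrestin recruitment detected by chemiluminescent reagent, read after 1 h at ambient temperature.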
TRPML1 blocker: inhibitors of human TRPML1 channel; Q9GZU1; TRPML1-inducible cells, Ca2+ dye fluorescence, FDSS; active compounds read low; inhibition of EC80 agonist-evoked calcium signal; activity change, negative = inhibition, % (concentration not given with the values); actives 0.02% (n = 390,000); AID 624415; in the data active means activity change below about -50%; inconclusive means about -30% to -50%; inactive means above about -30%;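 also: stimulus is agonist 54-4 at its EC80 concentration; % is scaled to controls: 0 for no effect and ±100 for the full control effect; the text of the record puts the active cut at -80%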
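Tet-induced TRPML1-DL cells loaded with Ca8 no-wash calcium dye were read kinetically on FDSS. Compound addition was followed by EC80 agonist 54-4 (4 uM final); inhibition was read over 110 s.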
* marks the source's active call; other numbers are inactive results; ? = inconclusive; · = no result given; [ ] = remark or other dose.

canonical_smiles	D2 PAM	TRPML1 agonist	Six1-Eya2 blk	PINK1 modulator	D2 ag	TRPML1 blocker
Cc1ccc(CN(C(=O)CNC(=O)c2cccs2)C(C(=O)NCC2CCCO2)c2ccccc2)cc1 (stereo not given)	0.8	0.5	5.6	·	0.1	-9.5
COC(=O)c1nnn(CC(=O)Nc2cc(Cl)ccc2C)c1C(=O)OC	-30.2	1.6	18.7	2.7%	-4.1	-5.1
CC(=O)c1c(C(C)=O)c(C)n(NC(=O)c2ccncc2)c1C	8.3	0.2	-1.4	1.0%	-3.8	8.0
COC(=O)C1=C(C)N(c2cccc3ccccc23)C(=O)C1	1.7	0.1	-4.9	0.7%	-5.5	2.5
COC(=O)c1ccccc1NC(=O)CSc1nc(N)cc(=O)[nH]1	-17.6	-0.2	-23.8	2.3%	3.8	0.5
O=C(COC(=O)c1cccs1)NCc1ccco1	-3.0	-1.2	-13.5	0.5%	-4.0	13.6
CN(C)c1ccc(/C=N/NC(=O)c2ccccc2Cl)cc1	-6.3	-0.3	-1.8	5.8%	-0.9	56.3
Cc1cc(=O)n2c3ccccc3n(CC(O)CN3CCOCC3)c2c1C#N (stereo not given)	2.1	0.4	3.6	3.3%	0.1	1.1
CCOC(=O)C1=C(C(F)(F)F)Nc2ncnn2C1c1cc(OC)c(OC)cc1OC (stereo not given)	0.2	0.4	-2.1	0.2%	-2.0	-17.9
NS(=O)(=O)c1ccc(CNC(=O)c2cc(-c3ccccn3)nc3ccc(Cl)cc23)cc1	-2.1	-0.1	-4.0	6.4%	4.9	-6.0
CC(C)(C)NS(=O)(=O)c1ccc2nc(NC(=O)c3ccc(N4C(=O)CCC4=O)cc3)sc2c1	-4.6	0.5	1.2	2.8%	-2.3	-10.5
Cc1ccc(S(=O)(=O)N2CCCC(c3nc4c(nnn4Cc4ccc5c(c4)OCCO5)c(=O)[nH]3)C2)cc1 (stereo not given)	-0.3	1.4	-13.8	-0.9%	1.2	13.6

Continuation:
canonical_smiles	D2 PAM	TRPML1 agonist	Six1-Eya2 blk	PINK1 modulator	D2 ag	TRPML1 blocker
COc1ccc(C(=O)NC(C)CCCC(C)(C)O)cc1OC1CCN(C(C)=O)CC1 (stereo not given)	-1.2	0.9	17.0	-0.9%	5.8	-2.3
Fc1ccccc1Sc1ccccc1CNC1=NCCN1	-14.3	0.8	9.0	10.8%	-2.3	5.9
N#CC1=C(S)N=C(N)C(c2nc(-c3ccccc3)cs2)C12CCCCC2 (stereo not given)	-1.7	1.0	-11.4	-1.2%	1.7	-22.9
CCOc1ccc(NC(=O)c2cc(S(=O)(=O)N3CCC(C)CC3)cn2C)cc1	·	0.7	·	6.1%	·	39.7
CCCCn1c(N)c(N(CC(C)C)C(=O)c2cc(Cl)nc3ccccc23)c(=O)[nH]c1=O	7.4	-0.6	3.0	2.5%	-0.1	11.7
CCCCNc1ccc(S(=O)(=O)c2cccc([N+](=O)[O-])c2)cc1[N+](=O)[O-]	2.7	0.2	0.0	4.0%	0.3	7.6
O=C1CC(c2ccccc2)CC(O)=C1C=NCCN1CCN(C(=S)Nc2cccc(Cl)c2)CC1 (stereo not given)	-3.3	0.4	-11.6	4.9%[38.3 µM]	0.5	-5.9
Cc1ccc(-c2cc(C(=O)O)n[nH]2)s1	-3.6	-0.1	-1.3	2.1%	2.8	-1.5
O=C(CSc1nnc(NC2CC2)s1)NN1C(=O)NC2(CCCCC2)C1=O	-3.0	-0.7	1.4	-1.8%	0.4	2.7
COc1ccccc1-n1c(-c2ccco2)n[nH]c1=S	-3.2	-0.1	3.4	-0.2%	5.1	-6.1
COc1ccc(/C=C/C(=O)NCc2nc3ccccc3[nH]2)cc1OC	-18.4	2.2	-1.9	-0.4%	-0.3	-17.8
O=C(CCc1ccc(Oc2cc([N+](=O)[O-])cc([N+](=O)[O-])c2)cc1)N1CCCCC1	57.6*	0.3	?	-1.3%	?	18.6

Next section.
canonical_smiles	D2 PAM	TRPML1 agonist	Six1-Eya2 blk	PINK1 modulator	D2 ag	TRPML1 blocker
CSCCC(NC(=O)COc1ccccc1)C(=O)N1CCCCC1 (stereo not given)	3.2	-0.7	3.2	-2.5%	-3.1	-5.1
COc1ccc(CCn2c3c(c(=O)[nH]c2=O)C(NC(=O)c2ccc(Cl)cc2)(C(F)(F)F)C(=O)N3)cc1OC (stereo not given)	·	-0.2	·	-0.5%	·	4.2
CCCCOc1ccc(/C=C/C(=O)NC2=Nc3ccccc3NC(C)=C2C(=O)OCC)cc1OC	0.5	1.0	0.5	1.9%	0.1	5.4
CCOc1ccc(NC(=O)c2cn(C)c(=O)c3cc(OC)c(OC)cc23)cc1	·	-0.5	·	1.1%	·	-16.4
O=C(CNC(c1ccccc1)c1ccccc1)Nc1c(F)cccc1F	5.1	2.1	1.4	4.4%	-1.1	21.8
CCCCCCCCCCn1cc(C(C)=O)c(=O)[nH]c1=O	1.7	-0.6	7.6	1.8%	-2.3	-12.5
NC(=S)N/N=C/c1c[nH]c2ccc(OCc3ccccc3)cc12	-21.0	2.0	-4.0	-1.9%	0.4	-18.1
CC(=O)N=c1sccn1CC(=O)c1ccc([N+](=O)[O-])cc1	0.5	0.2	3.2	-2.8%[38.3 µM]	0.2	18.8
CCCOc1ccccc1OCC(=O)Nc1cccc(S(=O)(=O)NC2=NCCC2)c1	3.2	0.7	-13.3	1.7%	0.1	5.1
CN(C)CCCN(C(=O)COc1ccccc1)c1nc2ccc(F)cc2s1	-19.3	0.3	0.9	1.8%	-0.3	3.1
CCS(=O)(=O)c1ccc(-c2cccc(NC(=O)COc3ccc(Cl)cc3)c2)nn1	-10.2	1.8	1.1	-0.1%	13.8	-10.4
O=C1CCCC(=O)N1c1ccc(N2CCOCC2)c([N+](=O)[O-])c1	-5.1	0.1	0.3	-0.4%	-3.9	22.2

Going on with the list:
canonical_smiles	D2 PAM	TRPML1 agonist	Six1-Eya2 blk	PINK1 modulator	D2 ag	TRPML1 blocker
COc1ccc(CCNC(=O)CCCC(=O)n2nc(C)c3ccccc32)cc1OC	-5.8	-0.9	-1.2	2.4%	-1.7	-14.8
CC(C)(C)N(Cc1ccccc1)C(=O)COC(=O)C1CC1	-2.0	0.3	14.8	-0.4%	-2.3	2.9
COc1ccc(-c2cnc3c(NC(C)=O)cc(-c4ccc(C(=O)NC5CC5)cc4)cn23)cc1OC	-4.1	-1.1	-16.9	8.2%	6.4	·
O=C(COc1ncnc2ccccc12)N1CCN(S(=O)(=O)c2ccc(Cl)cc2)CC1	1.2	1.0	8.3	?	-2.3	-11.2
COc1ccccc1N(C)S(=O)(=O)c1ccc(C(=O)Nc2ncc(C)s2)cc1	-33.6	0.6	0.7	-0.5%	0.6	0.2
COc1ccc(CCNC(=O)Cn2nnc(-c3cccc(C(F)(F)F)c3)n2)cc1OC	·	1.7	·	1.7%	·	4.6
COc1cc(/C=C/C(=O)OCc2c(C)noc2C)ccc1OC(F)F	-23.0	4.8	12.0	-0.4%	3.6	-22.7
CC(C)n1ncc2c(C(=O)N3CCN(Cc4ccc(Br)s4)CC3)cc(C3CC3)nc21	5.6	2.2	-5.1	?	?	-19.0
Cc1nn(C)c(C)c1CN(C(=O)CCc1nnc(Cc2c[nH]c3ccccc23)o1)C(C)C	-2.3	0.3	-1.9	-0.6%	0.5	-5.2
Cc1cc(NC(=O)Cn2nc(C)n3cccc3c2=O)ccc1Br	·	0.1	·	5.0%	·	4.7
Cc1c(C)c2cc3c4c(oc3c(C)c2oc1=O)CCCC4	-3.8	2.3	-0.6	11.5%	-2.9	8.3
C=CC[C@H](CC(=O)NCCO)C(=O)N[C@@H](C)COC(=O)[C@H](CC=C)CC(=O)OC(C)(C)C	·	-0.5	7.3	-0.2%	-0.2	25.7

Continuation.
canonical_smiles	D2 PAM	TRPML1 agonist	Six1-Eya2 blk	PINK1 modulator	D2 ag	TRPML1 blocker
CCOC(=O)CN(C(=O)COC(=O)C1(c2ccccc2)CC1)c1ccc(F)cc1	-12.2	5.2	2.5	0.8%	-5.5	9.0
S=C(NCCc1c[nH]c2ccccc12)NC1CCCC1	2.8	-0.8	0.2	0.7%	4.2	5.7
CCOC(=O)c1ccc(NC(=O)Nc2ccc3c(c2)OCCO3)cc1	13.6	-0.1	-23.0	-1.4%[38.3 µM]	0.0	10.4
O=c1c2ccccc2nc(-c2ccco2)n1CCc1ccc(O)cc1	-5.6	1.8	-10.0	0.0%	1.0	0.4
COc1ccccc1NC(=O)C(C)NS(=O)(=O)c1ccc(F)cc1 (stereo not given)	-10.4	1.5	-3.3	-1.7%	1.7	-10.8
O=c1c2ccccc2nc2c3ccccc3c3nncn3n12	9.6	-0.3	-28.3	14.9%	-4.2	36.7
Clc1ccc(-n2nnc(-c3cccnc3Cl)n2)cc1Cl	-9.6	-0.4	-13.6	1.0%	-6.1	17.4
CCCCNc1c([N+](=O)[O-])ncn1C	-4.6	0.3	0.5	1.3%	-4.0	-7.2
Cc1cc(Cl)c2oc(C(=O)N(CCO)Cc3ccccc3)c(C)c2c1	-11.0	1.0	-0.1	2.4%	5.6	-0.4
CCOc1cc(Br)ccc1S(=O)(=O)NCc1ccccc1	-4.8	0.8	0.8	6.1%	-0.8	6.8
O=C(CSc1n[nH]c(-c2ccccc2)n1)Nc1ccc(Br)cn1	1.6	-0.2	-3.6	3.8%	1.8	-12.4
Cc1cccc(NC(=O)CNC(=O)CN2C(=O)NC3(CCc4ccccc43)C2=O)c1C (stereo not given)	-9.2	-0.2	4.6	5.5%	-1.5	-10.2

(listing goes on)
canonical_smiles	D2 PAM	TRPML1 agonist	Six1-Eya2 blk	PINK1 modulator	D2 ag	TRPML1 blocker
CC(=O)c1ccc(Oc2cnccn2)cc1	-12.2	0.6	2.8	0.3%	-3.3	-1.6
Cc1ccc(S(=O)(=O)Nc2ccc(N(C)S(=O)(=O)c3ccc(C)cc3)cc2)cc1	-8.1	-1.0	1.8	6.0%	-0.7	31.4
CC(=O)Nc1ccc(C(=O)N/N=C/c2cc(Br)cc(Br)c2O)cc1	-8.6	0.4	-65.0*	1.6%	-5.9	-16.5
Cc1nn(Cc2ccc(C(=O)Nc3nc4c(C)cccc4s3)o2)c(C)c1Br	6.1	3.0	4.3	2.9%	-1.8	-3.3
COC(=O)[C@@]1(C(C)C)N=C(c2cc(OC)c(OC)c(OC)c2)[C@]2(O1)C(=O)N(C)c1ccccc12	·	-0.6	1.5	0.7%	·	·
Cc1cc(NC(=O)CSc2nc3ccccc3[nH]2)n(-c2ccccc2)n1	0.4	0.4	4.3	2.4%	-27.7	6.7
CCOc1ccc(C(=O)N2CCN(Cc3ccccc3)CC2)cc1	-17.1	-0.5	-0.2	0.0%[38.3 µM]	-1.0	0.7
O=C(Cn1c(=O)n(-c2ccccc2)c(=O)c2sccc21)NCc1ccccc1	-3.9	0.1	4.8	-1.2%	1.2	-6.2
O=C1NN(c2ccc(F)cc2)C(=O)/C1=C/c1cccs1	-8.5	1.8	-4.6	-2.6%	-3.9	-13.0
CC(C)[C@H](NC(=O)NCc1cccs1)C(=O)O	6.1	-0.3	2.6	2.7%	-1.3	-12.8
O=C(CNCc1ccco1)Nc1ccc(N2CCCCCC2)cc1	-10.6	-0.6	-29.3	1.5%	5.3	-9.5

Screening data: PubChem BioAssay, National Center for Advancing Translational Sciences (NCATS)
